Assay outcomes from PubChem BioAssay.
SARS PLpro yeast = blocks SARS-CoV papain-like protease in a yeast assay | Potency, µM (highest dose often 32.9 µM), for the others: top-dose activity, positive = growth rescue | AID 485353 | 0.19% of 330,000 active | S. cerevisiae expressing SARS-CoV PLpro, growth rescue; control for the full effect not named in the record; active means well fitted rising curve with a large enough effect; inconclusive means small, poorly fitted or top-dose-only effect; inactive means no such curve, though single readings can be large or run the other way; further: 0% is about no effect; nearly all actives have a fitted effect of over 55% in size; growth read by luminescence after 48 h
NS1 function inh = blocks influenza NS1 protein function | S. cerevisiae slowed by influenza A NS1, growth recovery by OD600 | Potency, µM (series often up to 46.1 µM), without a hit: at the top dose activity, positive = more growth | 0.4% of 270,000 active; active means well fitted rising curve with a large enough effect; inconclusive means small, poorly fitted or top-dose-only effect; inactive means no such curve, though single readings can be large or run the other way; further: nearly all actives have a fitted effect of over 50% in size
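In this qHTS, NS1 from influenza A is expressed in budding yeast, where it slows growth. Cells are switched from glucose to 2% galactose medium (pH 6.0, -URA), treated with compound, and growth recovery is read at OD600.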
Cruzain inh noDet = blocks cruzain activity in detergent-free assay; P25779; purified cruzain, Z-FR-AMC fluorescence, no detergent; Potency, µM, for inactives: max response, negative = inhibition, actives largely listed as inhibitors; 2.3% of 200,000 active; AID 1476;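 further: plate controls were enzyme without inhibitor for no effect and buffer without enzyme for full effect; nearly all actives have a fitted effect of over 40% in size; top concentration of the series not given in the record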
Target sequence (P25779 123-467 limits assumed): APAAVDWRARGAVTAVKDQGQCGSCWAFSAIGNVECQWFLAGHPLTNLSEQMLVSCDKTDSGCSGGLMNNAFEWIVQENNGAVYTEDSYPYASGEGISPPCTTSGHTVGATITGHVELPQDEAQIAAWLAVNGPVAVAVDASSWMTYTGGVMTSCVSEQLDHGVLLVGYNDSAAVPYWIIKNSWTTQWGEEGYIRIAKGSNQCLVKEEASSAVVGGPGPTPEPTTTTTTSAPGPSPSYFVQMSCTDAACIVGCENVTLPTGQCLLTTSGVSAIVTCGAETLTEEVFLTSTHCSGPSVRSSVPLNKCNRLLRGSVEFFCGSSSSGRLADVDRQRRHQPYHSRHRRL
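Purified cruzain at 1.5 nM, pre-incubated 15 min with compound at room temperature in 100 mM sodium acetate pH 5.5, 5 mM DTT, 0.00005% Triton X-100. Reaction started with 2 uM Z-FR-AMC; AMC fluorescence increase over 60 s gives rate.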
Marburg entry inh = inhibitors of Marburg virus binding or cell entry; AID 540276; Potency, µM (series often up to 37.8 µM), without a hit: at the top dose activity change, negative = inhibition, actives largely listed as inhibitors; 1.8% of 300,000 active; Marburg virus pseudotyped entry inhibition, cell reporter; control for the full effect not named in the record; about a third of the inactives were read at about 46 µM; active = well fitted inhibition curve with a large enough effect; inconclusive = small, poorly fitted or top-dose-only effect, or effect the other way; inactive = flat fitted curve, though single readings scatter; tested in HEK293 cells; about a fifth of its hits are not listed in these tables; further: on the % scale 0 is the no-effect control and ±100 the full control effect; luciferase read-out
Cruzain inh Det = blocks cruzain activity in presence of Triton detergent; AID 1478; purified cruzain, Z-FR-AMC fluorescence, 0.01% Triton; 0.43% of 200,000 active; Potency, µM, without a hit: max response, negative = inhibition, hits mostly inhibitors;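 further: plate controls were neutral wells for no effect and buffer without enzyme for full effect; nearly all actives have a fitted effect of over 40% in size; top concentration of the series not given in the record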
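Read-out: AMC fluorescence (360 nm excitation, 450 nm emission), four reads over 2 min, first-to-third difference used. Conditions: cruzain 1.5 nM, Z-FR-AMC 2 uM, pH 5.5 acetate, 5 mM DTT, 0.01% Triton X-100.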
RE007 growth inh = less growth of the S. pombe RE007 Vpr strain. Potency, µM (doses to about 92.2 µM), for inactives: at the top dose activity change, negative = less growth. 0.21% of 360,000 active. S. pombe RE007 Vpr strain, BacTiter-Glo ATP luminescence, 24 h; control for the full effect not named in the record; active = well fitted falling curve with a large enough effect; inconclusive = small, poorly fitted or top-dose-only effect; inactive = no such curve, though single readings can be large or run the other way;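 further: on the % scale 0 is the no-effect control and ±100 the full control effect; nearly all actives have a fitted effect of over 50% in size; the assay follows cell death caused by Vpr and the record does not say whether a fall means rescue or toxicity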
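Fission yeast strain RE007, carrying one chromosomally integrated HIV-1 vpr copy, was seeded at OD 0.01 in PMG+AL medium with 23 nL pinned compound. After 24 h at 30 °C and 99% humidity, viability was read by BacTiter-Glo luminescence.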
StopGo reporter = lowers the luciferase signal of an FMDV 2A StopGo reporter. Potency, µM (titrated, usually from 57.9 µM), inactives show at the top dose signal change, negative = less light. human cells with a luciferase reporter of 2A StopGo recoding; control for the full effect not named in the record. 1.2% of 410,000 active. AID 1159524; active = well fitted falling curve with a large enough effect; inconclusive = small, poorly fitted or top-dose-only effect; inactive = no such curve, though single readings can be large or run the other way; tested in HEK293T cells; further: on the % scale 0 is the no-effect control and ±100 the full control effect; nearly all actives have a fitted effect of over 45% in size; luciferase light after 4 h
LASV entry inh = blocks Lassa virus binding to or entry into cells; Lassa virus pseudotype entry inhibition, cell reporter; control for the full effect not named in the record; Potency, µM (series often up to 37.9 µM), for the others: top-dose activity change, negative = inhibition, usual class: inhibitors; 1.2% of 300,000 active; active means well fitted inhibition curve with a large enough effect; inconclusive means small, poorly fitted or top-dose-only effect, or effect the other way; inactive means flat fitted curve, though single readings scatter; tested in HEK293 cells; further: on the % scale 0 is the no-effect control and ±100 the full control effect; nearly all actives have a fitted effect of over 50% in size; luciferase read-out
* marks the source's active call; other numbers are inactive results; ? = inconclusive; . = no result given; & = joins results of further samples; [ ] = remark or other dose. Unless noted, the call rests on the fitted dose curve; in most records, active means well fitted curve in the direction sought with a large enough effect; inconclusive means small, poorly fitted or top-dose-only effect, or another doubt; inactive means no such curve, though single readings can be large; an effect the other way counts as inactive or inconclusive. Potency means the concentration at half of the fitted maximal effect.

SMILES	SARS PLpro yeast	NS1 function inh	Cruzain inh noDet	Marburg entry inh	Cruzain inh Det	RE007 growth inh	StopGo reporter	LASV entry inh
CCN1CCC(C(N)=O)CC1	?	?	-4.6%	7.0%[46.1 µM]	3.8%	24.7%	-10.1%	23.4%
COc1ccc(CCNC(=O)COC(=O)/C=C/c2ccc(OC)c(OC)c2)cc1	4.8%	-0.1%	9.7%	.	-9.3%	-10.0%	-4.5%	.
Cc1ccc(CNc2nc(N)c([N+](=O)[O-])c(Nc3ccc(F)cc3)n2)cc1	4.3%	7.8%	15.8µM*	?	-0.3%	23.9%	?	15.9%
CCCC(=O)c1cc(F)c(N2CCOCC2)cc1C	-3.6%	-10.1%	0.8%	8.0%	2.6%	-1.2%	.	14.3%
Cc1cc(=O)n2nc(N3CCCC(C(=O)NCc4ccccc4)C3)sc2n1 (stereo not given)	0.7%	4.4%	.	.	.	-16.0%	-22.5%	.
CCCN(CCC)CCCNC(=O)Cn1cnc2onc(-c3ccc(F)cc3)c2c1=O	.	.	-7.6%	.	-2.2%	.	-16.8%	?
O=C(COC(=O)C1CC2CCCC(C1)C2=O)Nc1nc(-c2ccc(F)c(F)c2)cs1 (stereo not given)	-2.3%	.	.	13.5%	.	3.3%	-8.0%	0.4%
COC(=O)c1sc(S(=O)(=O)NCC(=O)O)c(C(=O)OC)c1C	0.7%	.	.	0.3%[46.1 µM]	.	-0.3%	3.8%	?
CCCCn1c(=O)n(-c2ccc(Br)cc2F)c(=O)c2c3c(sc21)CN(C(C)=O)CC3	.	.	?	-20.3%[46.1 µM]	-8.7%	.	-5.1%	.
Cc1cccc(C(=O)Nc2sc3c(c2C#N)CCCCC3)c1	-15.8%	1.1%	?	?	3.2%	3.2%	8.4%	?
CCc1cc(=O)oc2c3c(cc(OCC(=O)Nc4cccnc4)c12)OC(C)(C)CC3	-14.1%	-23.2%	.	.	.	-9.8%	-21.2%	.
CCCCCOC(=O)C1=C(C)NC(=O)NC1c1ccccc1OCC (stereo not given)	-0.3%	-2.1%	9.6%	?	-7.6%	16.1%	-10.5%	-11.0%
Cc1ccccc1NC(=O)c1c(C)oc2ccc(O)c(CN3CCCC(C)C3)c12 (stereo not given)	.	.	-2.0%	?	-2.8%	.	-28.5%	?
CCN(CC)S(=O)(=O)c1cccc(C(=O)N[C@H](C(=O)NNC(=O)c2ccccc2)C(C)C)c1	-0.6%	-0.6%	.	-3.0%	.	-21.5%	4.1%	2.7%
FC(F)(F)c1ccc(-c2n[nH]c(=S)o2)nc1	1.1%	4.7%	.	2.6%[46.1 µM]	.	-11.4%	0.0%	-10.8%[46.1 µM]
Cc1oc(-c2ccccc2F)nc1CS(=O)(=O)CC(=O)NC1CCCC(C)C1C (stereo not given)	-10.7%	-1.1%	.	.	.	7.7%	?	.
O=C(NCCCNC(=O)c1ccc(Cl)cc1Cl)c1ccccn1	0.5%	-2.8%	.	-0.8%[46.1 µM]	.	6.7%	3.3%	0.2%[46.1 µM]
CCCn1c(=O)c2sccc2n2c(CCCC(=O)N3CCN(c4cccc(Cl)c4)CC3)nnc12	.	.	3.3%	.	0.2%	.	-22.3%	-8.3%[46.1 µM]
COc1ccc(-c2cc3nc(-c4ccccc4)cc(N4CCC5(CC4)OCCO5)n3n2)cc1	-10.7%	-2.2%	?	?	22.4µM*	2.2%	-21.3%	-28.1%
CSc1ccc(C(=O)N2CCc3ccc(NC(=O)c4ccccn4)cc3C2)cc1	-10.0%	-3.6%	.	?	.	-9.1%	-11.9%	?
COC(=O)c1ccc(OCC(O)Cn2cnc3cc(C)c(C)cc32)cc1 (stereo not given)	.	.	-3.4%	.	-6.0%	.	0.0%	-28.1%[46.1 µM]
CC(C)NC(=O)NC(=O)COC(=O)Cc1ccsc1	?	-3.2%	10.8%	?	-0.4%	-23.2%	-3.9%	-0.2%
CCOC(=O)C1CCN(C(=O)CSc2ccccc2)CC1	1.0%	11.2µM*	-0.4%	-1.3%	6.8%	4.1%	5.1%	16.0%
CC1CCCC/C1=N\NC(=S)Nc1cccnc1 (stereo not given)	1.3%	5.3%	.	4.0%[46.1 µM]	.	-3.3%	-0.7%	12.4%
CC(C)n1cc(CN2CCC(n3nccc3NC(=O)CCCc3ccccc3)CC2)cn1	-1.7%	-0.6%	.	-2.5%	.	2.2%	-17.5%	7.9%
Cc1ccc(-c2cn3cccc(C)c3n2)cc1	-3.4%	-8.3%	.	?	.	-23.6%	-35.0%	?
COc1ccc(CC(=O)OCC(=O)NC(=O)Nc2ccccc2F)cc1	-0.3%	.	.	?	.	3.3%	-7.3%	3.6%
CC(NC(=O)COC(=O)C12CC3CC(CC(Br)(C3)C1)C2)c1ccccc1 (stereo not given)	-4.3%	.	.	6.5%[46.1 µM]	.	21.0%	-12.0%	3.6%[46.1 µM]
Cc1cccc(N2C(=O)CC(N3CCN(Cc4ccc(Cl)cc4)CC3)C2=O)c1 (stereo not given)	-4.6%	0.9%	-0.1%	-3.2%	9.3%	?	-12.7%	-1.4%
Cn1c(-n2cccc2)c(-c2c(-c3ccc(F)cc3)[nH]c3c2c(=O)[nH]c(=O)n3C)c(=O)[nH]c1=O	.	.	-9.3%	2.2%[46.1 µM]	-0.8%	.	-9.5%	7.3%[46.1 µM]
Cc1ccccc1NC(=S)N(CCN(C)C)C(C)c1ccccn1 (stereo not given)	-3.0%	-3.0%	-12.8%	5.5%	3.5%	-1.2%	-6.3%	16.9%
CCC(=O)N1CCc2cc(S(=O)(=O)NCCC(=O)Nc3cccc(SC)c3)ccc21	.	.	-1.7%	-0.5%[46.1 µM]	-2.6%	.	-18.5%	?
CCOc1ccccc1CNC(=O)CN1C(=O)C2CCCCN2c2ccc(C(=O)N(C)C)cc21 (stereo not given)	.	.	26.1%	.	5.1%	.	-12.1%	-2.6%[46.1 µM]
CCc1c(C(C)S(=O)(=O)c2ccccc2)[nH]c(=O)n1CC (stereo not given)	0.8%	.	.	0.3%[46.1 µM]	.	-5.3%	-6.8%	2.7%
CC1CCN(S(=O)(=O)c2ccc(S(=O)(=O)N3CCCC3)cc2)CC1	-2.6%	5.5%	.	17.8%[46.1 µM]	.	5.4%	-7.5%	6.3%
COc1ccc(O)c(-c2cc(-c3ccc(F)cc3)n[nH]2)c1	-4.7%	-57.1%	.	?	.	?	12.4%	0.2%[46.1 µM]
COc1ccc(CC(=S)N2CCOCC2)cc1OC	-10.4%	12.8%	-1.0%	-5.9%	1.5%	-7.4%	-11.0%	-3.9%
O=P(c1ccc2c(c1)OCCO2)(N1CCOCC1)N1CCOCC1	4.4%	1.0%	-11.4%	13.6%[46.1 µM]	-4.0%	-6.0%	-16.2%	-0.7%
CC1CC(OC(=O)c2ccccc2)(c2ccccc2)C(C)CN1C (stereo not given)	0.2%	-2.0%	.	?	.	-12.3%	-7.7%	-21.3%
CN(CC(=O)NCc1ccccn1)S(=O)(=O)c1ccc(Cl)cc1	1.0%	2.8%	5.3%	-2.4%	3.0%	5.1%	-6.3%	-0.8%
O=C1COc2ccc(C(=O)COC(=O)c3sc4ccccc4c3Cl)cc2N1	10.7%	-8.8%	?	2.2%	-1.3%	2.2%	?	?
CC1=C(C)C(=O)C(CCCCC#CCCCC#CCO)=C(C)C1=O	6.3%	-19.2%&-6.9%	13.9%&18.8%	?	-6.8%&-14.1%	-6.8%	22.4µM*	20.6µM*
CC(C)N1CCC(N2CCN(C/C=C/c3ccc(F)cc3)CC2CCO)CC1 (stereo not given)	1.2%	2.0%	.	?	.	0.4%	-10.4%	?
Cc1cc(N2C(=O)C3CC=CCC3C2=O)no1 (stereo not given)	11.9%	2.1%	7.7%	3.7%	-1.6%	18.0%	0.5%	2.2%
Cc1cc2cc(CN(CCCO)S(=O)(=O)c3cccc4nsnc34)c(=O)[nH]c2cc1C	0.2%	-6.4%	?	-0.4%&-25.3%	-0.9%	-14.3%	-15.9%	-15.3%[14.3 µM]
O=C(NCc1cccnc1)c1cccc2c1C(=O)N(C1CCCCC1)C2	-4.9%	-14.5%	-0.5%	-9.3%	-2.1%	0.8%	-16.5%	-21.9%
O=C(COc1ccccc1Cl)OCc1cc(=O)n2nc(C3CCCCC3)sc2n1	.	.	4.5%	.	-5.7%	.	1.1%	-10.3%[46.1 µM]
Clc1ccc(-c2nc3ccccn3c2Nc2ccc3c(c2)OCCO3)s1	.	.	?	?	-7.2%	.	54.8%[activator]	-12.4%[46.1 µM]
Cc1ccc2oc(/N=C(\N)NC(=O)C(C)(C)C)nc2c1	0.4%	-4.3%	.	?	.	14.5%	35.5µM*	?
O=S(=O)(NC1CCN(Cc2ccccc2)CC1)c1cccc(S(=O)(=O)N2CCOCC2)c1	9.4%	4.5%	-2.5%	?	0.8%	1.1%	7.1%	5.1%
COc1cccc(C=Nc2ccc(N3CCOCC3)cc2)c1O	-3.1%	5.4%	.	.	.	-0.4%	-0.8%	.
COCCNC(=O)c1cc2cc(Cl)cc(Cl)c2oc1=O	0.0%	0.1%	.	-1.1%[46.1 µM]	.	8.9%	2.5%	6.3%
O=C(C1CCN(c2ncnc3c2nc2n3CCCCC2)CC1)N1CCN(c2cccc(Cl)c2)CC1	-49.5%	1.3%	.	.	.	22.3%	22.4µM*	-21.1%[46.1 µM]
C/C(=C\c1ccc(N(C)C)cc1)[N+](=O)[O-]	-18.8%	-147.1%	-0.3%	5.17µM*	3.5%	?	14.1µM*	?
COC(=O)c1ccc(CNC(=O)COC(=O)c2ccc(N(C)C)cc2)cc1	0.0%	5.6%	.	?	.	1.7%	?	?
COc1cccc([C@@H]2Nc3ccc(C(=O)O)cc3[C@@H]3C=CC[C@@H]32)c1OC	.	.	-20.6%	.	-5.4%	.	-13.9%	2.6%[46.1 µM]
